STK33 kinase inh – blocks human STK33 kinase activity; Q9BYT3; purified STK33, MBP phosphorylation, ADP-Glo luminescence; inhibition, % at 10 µM; 320,000 compounds, 0.073% hits; AID 2661;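 active = inhibition at or above 25%, using the most active replicate where run in duplicate; inactive = inhibition below 25%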
Target sequence (Q9BYT3 whole entry, looked up): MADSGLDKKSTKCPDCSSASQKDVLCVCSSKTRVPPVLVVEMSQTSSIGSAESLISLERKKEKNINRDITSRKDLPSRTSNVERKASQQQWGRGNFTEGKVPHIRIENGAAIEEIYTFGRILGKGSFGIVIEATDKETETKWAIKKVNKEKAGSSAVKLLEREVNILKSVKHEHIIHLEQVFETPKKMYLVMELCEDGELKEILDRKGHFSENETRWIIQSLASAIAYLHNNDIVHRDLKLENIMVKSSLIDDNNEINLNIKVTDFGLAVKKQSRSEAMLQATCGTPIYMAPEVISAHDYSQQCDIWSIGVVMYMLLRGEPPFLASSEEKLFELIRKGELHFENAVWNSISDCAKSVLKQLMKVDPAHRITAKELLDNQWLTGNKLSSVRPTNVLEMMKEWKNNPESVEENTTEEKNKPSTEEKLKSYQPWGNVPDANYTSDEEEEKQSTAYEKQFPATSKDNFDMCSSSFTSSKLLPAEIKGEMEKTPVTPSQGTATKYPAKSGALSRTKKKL
* hit, by the source's call; & = joins results of further samples. An excerpt; most or all hits stand in other tables.

SMILES	STK33 kinase inh
CC(C)OCCCNC(=O)C1CCC(CNS(=O)(=O)c2ccc(Cl)cc2)CC1 (configuration not stated)	-2.7
Cc1ccnc(NC(=O)CCCc2c[nH]c3ccccc23)c1	-1.8
COc1ccc(C(C)NS(=O)(=O)Cc2ccccc2)cc1 (configuration not stated)	-0.8
O=S(=O)([N-]c1nc2ccccc2nc1-[n+]1ccccc1)c1ccc(Cl)cc1	0.7
O=S(=O)(Nc1cccc(-c2ccc(N3CCCCCC3)nn2)c1)c1ccccc1F	-0.4
O=C(Cc1ccccc1)Nc1cccc([N+](=O)[O-])c1	-0.3
COc1ccc(-c2cc(=O)oc3cc4occ(C)c4cc23)cc1	0.0
CCC1CCCCN1S(=O)(=O)c1ccc(NC(=O)C2CCN(C(=O)c3ccco3)CC2)cc1 (configuration not stated)	1.6
COc1ccc2c(c1)C(SCC(=O)NCCc1ccc(Cl)cc1)CC(C)(C)O2 (configuration not stated)	-1.7
COCCNC(=O)C(=O)NNC(=O)c1ccccc1OC	1.2
Clc1ccccc1-c1nnc(-c2ccc3c(c2)OCO3)o1	3.8
O=C(NCCc1nc2ccccc2[nH]1)c1ccc(Cl)c([N+](=O)[O-])c1	1.2
O=C(NCCc1cccs1)c1ccc(Cl)cc1	0.4
COc1cccc(-c2cc3nc(-c4ccccc4)cc(N4CCC5(CC4)OCCO5)n3n2)c1	-0.6
CC(=O)N(c1cccc(Br)c1)C1C=CS(=O)(=O)C1 (configuration not stated)	-1.9
CCC(C)Nc1nc(C)nc2c1oc1ccccc12 (configuration not stated)	0.1
COc1ccccc1N1CCN(C2CCCN(Cc3cc(F)cc(F)c3)C2)CC1 (configuration not stated)	-1.1
Cc1ccccc1-c1nc(CS(=O)(=O)CC(=O)NCc2ccco2)c(C)o1	-0.1
Cc1ccc(NC(=O)CCn2cccc2)cc1Cl	0.4
O=C(Nc1ccc(-c2nnn(CC(=O)N3CCN(C(=O)c4ccco4)CC3)n2)cc1)c1ccc(F)cc1	-0.4
COc1ccc(-n2ncc3c(NCCN4CCOCC4)ncnc32)cc1	0.3
CCCCC(O)(CCCC)C(=O)NN(C(=O)CCl)c1ccccc1	0.6
O=C(NCCCc1ccccc1)c1ccncc1	-1.5
O=[N+]([O-])c1ccc(N2CCN(c3ccc(F)cc3)CC2)cc1	0.5
Cc1ccc(NC(=O)Cn2sc3nc(C)cc(C)c3c2=O)c(Cl)c1	-0.3

Other entries follow.
SMILES	STK33 kinase inh
CC[C@H](C)[C@H](NC(=O)c1ccc(Cl)cc1)C(=O)OCC(=O)c1ccc2c(c1)NC(=O)CO2	-0.3
COc1cccc(/C=N/Nc2ncccc2[N+](=O)[O-])c1OC	2.1
Cc1cc(C)nc(CC(N)=O)n1	-1.2
O=C(c1ccccc1)N1CCN(C2CCCCC2)CC1	-1.2
Cc1ccc(C)c2[nH]c(=O)c(CCNC(=O)CC(C)(C)C)cc12	-0.4
CC(C)c1ccc(NS(=O)(=O)c2ccc3[nH]cc(C(=O)N4CCC(C(N)=O)CC4)c(=O)c3c2)cc1	-1.8
CC(=O)Nn1cnc2c(c1=O)C1(CCCCC1)Cc1ccccc1-2	0.1
COc1ccc(NS(=O)(=O)c2cc(NC(=O)c3cccc(OCc4c(C)noc4C)c3)ccc2OC)cc1	-1.7
CCOc1ccc(N(C)C(=O)CCc2nnc3ccc(N4CCCCC4)nn23)cc1	-0.9
c1ccc(-c2noc(C34CC5CC(CC(C5)C3)C4)n2)cc1	-3.3
CCOc1cccc(N2C(=O)CC(NCc3ccc(S(N)(=O)=O)cc3)C2=O)c1 (configuration not stated)	-1.5
CCOC(=O)NC(Cc1c[nH]c2ccccc12)C(=O)NCCc1ccc(S(N)(=O)=O)cc1 (configuration not stated)	-1.9
COc1cccc(CNC(=O)CCCSc2ccccc2)c1	-0.2
CC(=O)n1cc([C@H]2C=C(C(=O)N3CCN(Cc4ccccc4)CC3)O[C@@H](OCc3ccc(CO)cc3)C2)c2ccccc21	-0.5
O=C(O)/C=C/C(=O)Nc1ccccc1-c1ccccc1NC(=O)/C=C/C(=O)O	-1.9
COc1cc(/C=N/n2nnnc2N)ccc1OCC(N)=O	-1.2
Cc1cc(Oc2ccc(Cl)cc2)nc(-c2ccccn2)n1	-1.3
O=C1CC(Sc2ccc(Cl)cc2)C(=O)N1Cc1ccncc1 (configuration not stated)	-0.5
Cc1cc(C(=O)OCC(=O)NNC(=O)c2cccs2)ccc1[N+](=O)[O-]	-2.2
O=C(O)c1ccc(OCc2ccc(C(=O)O)o2)cc1	-1.5
COc1ccc(-n2c(O)c(C=NCC(c3ccco3)N3CCCC3)c3ccccc3c2=O)cc1OC (configuration not stated)	-1.2
N#CCSc1nnc(COc2cccc3ccccc23)n1-c1cccc(Cl)c1	0.5
CCOC(=O)C(/C=C(\C#N)C(=O)OCC)=C(/N)N1CCN(c2c(C)cccc2C)CC1	-1.9
C=CCn1c(SCC(=O)Nc2c(C)cccc2C)nnc1-c1ccncc1	0.7
COc1ccc2c(c1)[nH]c1c(=O)n(Cc3ccco3)cnc12	-0.8

Grouped by structure, the compounds so far with a thiophene ring, fused or not (2)
SMILES	STK33 kinase inh
O=C(NCCc1cccs1)c1ccc(Cl)cc1	0.4
Cc1cc(C(=O)OCC(=O)NNC(=O)c2cccs2)ccc1[N+](=O)[O-]	-2.2

Continuation.
SMILES	STK33 kinase inh
S=C(Nc1cccnc1)Nc1ccccn1	-2.4
Cc1ccccc1NC(=O)CC(O)(C(F)(F)F)C(F)(F)F	-0.1
O=C(CSc1cccc[n+]1[O-])Nc1cc(S(=O)(=O)N2CCOCC2)ccc1Cl	-0.1
O=C(Nc1cccc(O)c1)c1cccc(C(=O)Nc2cccc(O)c2)c1	8.8
Cc1ccccc1Cn1cc(NC(=O)c2cc(-c3ccco3)on2)cn1	-1.9
COc1ccc(/C=C2/NC(=O)N(Cc3ccccc3F)C2=O)cc1OC	-0.5
CCOC(=O)C1=C(c2ccccc2)OC(N)=C(C#N)C1c1ccc(Br)s1 (configuration not stated)	-1.0
CCOc1ccccc1N(CC(=O)NC(C)(C)C)C(=O)c1ccc(CN2CCOCC2)o1	-0.2
Cc1ccc2nc(N=C(N)N)nc(C)c2c1	2.1
CCOc1cc(N2CCOCC2)c(OCC)cc1NC(=O)c1ccc(NC(C)=O)cc1	-0.5
CC1CC(C)CN(CC(O)COCc2ccccc2F)C1 (configuration not stated)	2.3
C=CCn1c(SCn2nnc3ccccc3c2=O)nnc1C1CCCCC1	-0.1
C/C(=N/NC(=O)c1ccccn1)c1ccco1	14
CCCCn1cnc2sc(-c3ccccc3)cc2c1=O	0.2
COC(CN(C(=O)CCl)C(C(=O)NC1CCCCC1)c1ccc(Cl)cc1)OC (configuration not stated)	-0.1
CCC(C)Sc1ccc([C@H]2N[C@@](Cc3ccccc3)(C(=O)OC)[C@H]3C(=O)N(CC)C(=O)[C@@H]23)cc1 (some centres not stated)	-1.1
O=C(CCC1CCCC1)Nc1ccc(Br)cn1	-0.2
O=C(c1ccc(=O)n(Cc2ccc(Cl)c(Cl)c2)c1)N1CCOCC1	-1.1
NCCCS(=O)(=O)O	0.3&8.1
O=C(Nc1ccc(N2CCOCC2)cc1)C1CCN(S(=O)(=O)Cc2ccccc2)CC1	0.6
O=[N+]([O-])c1ccc(OCC(O)CNC2CCCC2)cc1 (configuration not stated)	-1.4
Cc1ccc(-n2nc3c(c2NC(=O)c2ccc4c(c2)OCO4)CSC3)cc1	-1.5
CCOC(=O)c1cnn2c(C)cc(-c3ccccc3)nc12	-1.0
CN(CC(=O)Nc1ccc(Cl)c(C(F)(F)F)c1)C(=O)Cc1c[nH]c2ccccc12	-1.5
Cc1oc(-c2ccccc2F)nc1CSCC(=O)NC1CC1	-1.0

Four compounds from above, sorted by their value in STK33 kinase inh, rising.
| compound | STK33 kinase inh |
| --- | --- |
| Cc1ccccc1Cn1cc(NC(=O)c2cc(-c3ccco3)on2)cn1 | -1.9 |
| C=CCn1c(SCn2nnc3ccccc3c2=O)nnc1C1CCCCC1 | -0.1 |
| Cc1ccc2nc(N=C(N)N)nc(C)c2c1 | 2.1 |
| CC1CC(C)CN(CC(O)COCc2ccccc2F)C1 (configuration not stated) | 2.3 |

Quoted from the listing.
`Cc1oc(-c2ccccc2F)nc1CSCC(=O)NC1CC1` – STK33 kinase inh = -1.0
`NCCCS(=O)(=O)O` – STK33 kinase inh = 0.3&8.1
`O=C(CCC1CCCC1)Nc1ccc(Br)cn1` – STK33 kinase inh = -0.2
`CCOC(=O)c1cnn2c(C)cc(-c3ccccc3)nc12` – STK33 kinase inh = -1.0
`C/C(=N/NC(=O)c1ccccn1)c1ccco1` – STK33 kinase inh = 14
`CCOc1ccccc1N(CC(=O)NC(C)(C)C)C(=O)c1ccc(CN2CCOCC2)o1` – STK33 kinase inh = -0.2

(cont.)
SMILES	STK33 kinase inh
COc1ccc(C(=O)c2cnc[nH]2)cc1OC	0.2
COc1ccc(Nc2nc(-c3sc(C)nc3C)cs2)cc1	-0.1
O=C(NCc1ccco1)c1ccccc1-c1nc(-c2ccccc2)no1	-1.7
CC1=NN(c2ccc(F)cc2)C(=O)C1C(c1cccc(O)c1)c1c(C)[nH]n(-c2ccc(F)cc2)c1=O (configuration not stated)	-0.7
CCOC(=O)Cc1csc(NC(=O)c2c(O)c3c(n(CC(C)C)c2=O)CCCC3)n1	-2.1
COC(=O)c1ccc(NC(=O)CSC2=NCCN2)cc1	-1.5
COC(=O)c1cc(OC)c(OC)cc1NC(=S)N1CCCCC1	1.0
CCC1CCCCN1C(=O)COc1cc(=O)n(C)c2ccccc12 (configuration not stated)	-1.0
O=C(Nc1ccc([N+](=O)[O-])cc1)c1cc(-c2ccccn2)nc2c(Cl)cccc12	-0.2
CCN(CC(=O)Nc1ccc(NC(C)=O)cc1)C(=O)c1cc(S(=O)(=O)N2CCCCCC2)ccc1OC	-1.8
CN(C)/C=C(/C(=O)c1ccc(F)cc1)S(=O)(=O)c1ccc(F)cc1	-1.2
Cc1ccccc1C(=O)NC1CC2CCCC(C1)N2Cc1ccc(Cl)cc1 (configuration not stated)	0.9
CN(C(=O)CCNC(=O)Cn1ccc2ccccc2c1=O)c1ccc(Br)cc1	-0.7
CC(=O)NC1C(c2nc3ccccc3s2)=C(c2ccccc2)C(=O)N1c1ccc(C)cc1 (configuration not stated)	-3.3
Cc1ccc2nc(-c3ccccc3C)oc(=O)c2c1	-1.0
Cc1c(C)c(C)c(C(=O)C2CCN(c3ccc([N+](=O)[O-])cn3)CC2)c(C)c1C	-0.4
COc1ccc(S(=O)(=O)N2CCC(C(=O)Nc3ccccc3N3CCCCC3)CC2)cc1OC	-0.3
Cc1c(NC(=O)Nc2cccc(Cl)c2)c(=O)n(-c2ccccc2)n1C	0.1
O=C(O)CC(=O)Nc1ccccc1	-1.0
Brc1ccc(N=C(c2ccccc2)c2ccncc2)cc1	-1.1
Cc1ccc(S(=O)(=O)C2(S(=O)(=O)c3ccc(C)cc3)CCCC2)cc1	0.0
NC(=O)c1ncn([C@@H]2O[C@H](CO)[C@@H](O)[C@H]2O)n1	-1.9
CCCCc1ccc(N2C(=NC(=O)C3CCCO3)SC3CS(=O)(=O)CC32)cc1 (configuration not stated)	0.7
COc1ccccc1NC(=O)COC(=O)c1c[nH]c(=O)[nH]c1=O	0.0
COC(=O)/C=c1\sc2n(c1=O)C(C)=CC(C)(C)N=2	0.2

Given with each value named: 2 of the compounds above.
canonical_smiles: CCOc1ccccc1N(CC(=O)NC(C)(C)C)C(=O)c1ccc(CN2CCOCC2)o1
  STK33 kinase inh = -0.2

canonical_smiles: Cc1ccc2nc(N=C(N)N)nc(C)c2c1
  STK33 kinase inh = 2.1

(cont.)
SMILES	STK33 kinase inh
COc1ccc(N=c2sc3ccccc3n2C)cc1	-0.6
COc1ccc(CCNC(=O)C2CCN(C(=O)c3ccccc3C)CC2)cc1	0.8
CCOC(=O)C1CCN(C(=O)c2cc(CN3C(=O)c4ccccc4C3=O)ccc2OCC)CC1	0.0
Nc1ccc(SCc2cccnc2)cc1	1.0
CCN(CC)c1ccc(N2C(=O)/C(=C/c3ccccn3)SC2=S)cc1	0.9
COc1cccc(NC(=O)CS(=O)(=O)Cc2nc(-c3ccc(C)cc3)oc2C)c1	-0.1
Cc1cc(/C=C2/C(=O)N(C)C(=S)N2C)c(C)n1C1CC1	0.1
Cc1ccc([N+](=O)[O-])cc1NC(=O)C1CCN(S(C)(=O)=O)CC1	-1.4
O=C(NC1CCCCC1)C(c1ccccc1)N(C(=O)c1csnn1)C1CCCC1 (configuration not stated)	-0.5
COc1cc(S(=O)(=O)N2CCOCC2)ccc1NC(=O)COc1ccc(N(C)S(=O)(=O)c2ccc(C)cc2)cc1	-0.9
CSc1ccccc1NC(=O)CN(C)CC(=O)Nc1cccc(Br)c1	0.0
O=C(CCN1C(=O)C2CC=CCC2C1=O)Nc1cccc(Cl)c1 (configuration not stated)	-4.2
N/C(CSc1ccc(Cl)cc1)=N\S(=O)(=O)c1ccc(Cl)cc1	0.5
CCOC(=O)c1cc2occc2n1CC(=O)NCCOC	1.0
Cc1nc(C)c(C(=O)C2=C(O)C(=O)N(CCN(C)C)C2c2ccco2)s1 (configuration not stated)	-14
CCc1ccccc1NC(=O)CN(c1cccc(OC)c1)S(C)(=O)=O	-0.3
Fc1ccccc1Cn1cc(C(=S)N2CCOCC2)c2ccccc21	-1.0
CC(=O)c1cc(C)ccc1OC(=O)c1ccco1	-1.1
CCOc1cc(/C=N/Nc2nnc(C)n2N)ccc1OC(C)=O	-1.1
CCOC(=O)N/N=C(C)/C=C/c1ccccc1	0.6
CCOC(=O)Cc1nnc(NC(=O)c2cccc(OCC)c2)s1	-1.1
CC(=O)N1CCN(C(C)=O)C1c1ccccc1	3.9
COc1cc(CN2CCNC(=O)C2CC(=O)NC2CCCC2)cc(OC)c1 (configuration not stated)	0.2
CC(=O)Oc1ccc2c(C)c(CC(C)O)c(=O)oc2c1 (configuration not stated)	1.1
Cc1ccsc1/C=C/c1ccc2ccccc2n1	-1.9

Continuation.
SMILES	STK33 kinase inh
CCN(C(=O)[C@@H]1CCCN1C(=O)c1cccs1)c1nc2cc(Cl)ccc2s1	-2.6
COCCNC(=S)NCCCNc1nc2cc3c(cc2cc1C#N)OCO3	1.8
COC(=O)c1ccccc1OCCCOc1ccc(C)cc1OC	-0.5
CC(=O)c1ccc(N2CCN(C(=S)Nc3ccc(Cl)c(Cl)c3)CC2)cc1	1.7
O=C(Nc1ccc(-c2nnc(-c3ccccc3)o2)cc1)C(F)(F)F	-3.8
O=C(CSc1nc2ccccc2o1)N1CCN(C(=O)c2ccco2)CC1	-0.1
O=C(Nc1ccc2c(c1)CCC2)c1ccccc1	0.1
